Bioassay records as filed in PubChem.
Yeast UUG start = modulators of start codon recognition fidelity in yeast | S. cerevisiae UUG-firefly luciferase reporter, luminescence/redox ratio | activity score, % at 18.7 µM | hit rate 0.13% among 350,000;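 active means replicate mean at a twofold rise or more, about +100% in these data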;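 further: firefly luciferase made from a UUG start codon reports start codon fidelity; reporter light over untreated wells divided by growth signal over untreated wells; some hits fall short of that in this replicate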
MT1-MMP act inh = inhibitors of human MT1-MMP activation; AID 651647; P50281; hit rate 0.061% among 360,000; HT1080 RFP-PRO-GFP cells, GFP/RFP ratio fluorescence, overnight; percent of plate control window, DMSO zero; GFP/RFP ratio change, % at 20 µM;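 active means GFP/RFP ratio change of at least 30% with cell ATP level not reduced by more than half and red fluorescence within 50% of control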; further: strong numbers were not always called active
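Assay system: HT1080 cells carrying an RFP-PRO-GFP reporter | Dosing: Single dose of 20 µM compound, 1% DMSO final | Incubation: Cells overnight before dosing, compound overnight, 37 °C, 5% CO2 | Evaluation: GFP/RFP fluorescence ratio | Control set: DMSO and RFP-L50D-GFP cell wells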
PABP FP inh = PABP-poly(A) binding inhibition; PABP-poly(A) RNA binding, fluorescence polarization; inhibition, % at 35 µM; hit rate 1% among 290,000;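 active means 50% or more with normal probe brightness, or confirmed in later tests; inconclusive means above 50% with abnormal brightness, or retests that disagree; inactive means below 50% or failed in later tests; about a fifth of its hits are not listed in these tables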;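 further: calls also rest on retests at 20 µM and on dose response follow-up; controls were probe without protein and protein plus probe with vehicle; some compounds called inactive have numbers as strong as hits; many hits fall short of the cut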
CSC inhib = blocks cancer stem cells | inhibition, % at 7.5 µM | cancer stem cell-like cells viability, luminescence | hit rate 1.1% among 300,000 | AID 2717;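 active means mean at 75% or more and at least half the replicates too; inconclusive means mean and replicates disagree; tested in HMLE shEcad cells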;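 further: 0% = median of negative and 100% = median of positive control wells; the first replicate is given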
eIF4H inh = inhibitors of RNA binding by human eIF4H; inhibition, % at 35 µM; Q15056; eIF4H fluorescence polarization binding assay; hit rate 0.94% among 290,000;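 active means 50% or more with normal probe brightness, or confirmed in later tests; inconclusive means above 50% with abnormal brightness, or retests that disagree; inactive means below 50% or failed in later tests; about a fifth of its hits are not listed in these tables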;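 further: calls also rest on retests at 20 µM and on dose response follow-up; 0% = protein and probe with vehicle and 100% = probe without protein; strong numbers were not always called active; many hits fall short of the cut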
Rce1 inhib = blocks yeast Ras-converting enzyme; Q03530; yeast membranes, quenched prenylated peptide cleavage fluorescence; calls only; hit rate 0.27% among 290,000;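 active means fall in fluorescence gain of 50% or more versus controls, with final raw signal at or below 3038400; inconclusive means same 50% fall but final raw signal above 3038400; inactive means fall in fluorescence gain under 50%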;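 further: plate controls were neutral control wells for no effect and wells lacking membranes for full effect; tested at 10 µM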
Target sequence (Q03530 whole entry, looked up): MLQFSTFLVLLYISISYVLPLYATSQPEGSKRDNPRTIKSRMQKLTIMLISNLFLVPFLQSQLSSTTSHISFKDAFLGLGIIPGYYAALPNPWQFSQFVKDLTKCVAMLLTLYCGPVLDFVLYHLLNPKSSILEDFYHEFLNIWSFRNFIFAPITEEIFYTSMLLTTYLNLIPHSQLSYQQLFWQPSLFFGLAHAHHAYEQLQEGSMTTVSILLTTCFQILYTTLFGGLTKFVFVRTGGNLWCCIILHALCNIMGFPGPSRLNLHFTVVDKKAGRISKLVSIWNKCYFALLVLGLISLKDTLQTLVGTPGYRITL
HIV Env fusion = blocks HIV Env-driven cell-cell fusion; HeLa-JRFL Env/CEM21 cell fusion, luciferase; inhibition, % at 12.3 µM; hit rate 1.1% among 360,000; AID 651610;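 active means mean replicate inhibition score of at least 50 and every replicate individually at or above 50; inconclusive means only one of the two criteria met; inactive means mean below 50 and not all replicates reaching 50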;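 further: 0% = plate neutral controls and 100% = maraviroc near 300 nM; one replicate is shown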
eIF4H inh retest = recorded beside eIF4H inh, whose call it bears; inhibition, %; compound at 20 µM; confirmation average;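 mean of two retest wells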
PABP FP inh retest = second read-out of PABP FP inh, no call of its own (marks repeat the call); inhibition, %; compound at 20 µM; confirmation repeats;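 mean of two retest wells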
MT1-MMP act inh RFP = recorded beside MT1-MMP act inh, whose call it bears; RFP signal change, %; measured here: RFP expression control read;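 0 = vehicle wells; hits needed this value within 50% of zero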
Starred values were filed as active, the others as inactive; i = inactive; ? = inconclusive; . = not tested or not shown.

SMILES | Yeast UUG start | MT1-MMP act inh | MT1-MMP act inh RFP | PABP FP inh | CSC inhib | eIF4H inh | Rce1 inhib | HIV Env fusion | others
CC(C)OC(=O)C1CC(C)(O)C(=O)C(C(=O)OC(C)C)C1c1ccc([N+](=O)[O-])cc1 (stereo unspecified) | . | -2 | -1 | -4 | 8 | 1 | i | 5
Cc1cccc(C(=O)O/N=C2\CCCc3ccccc32)c1 | -6 | 0 | 2 | -7 | -13 | -3 | i | -19
O=C(NCc1ccco1)/C(=C\c1cccs1)NC(=O)c1ccsc1 | -5 | 2 | 0 | 3 | -16 | 4 | i | -3
COc1cc2nc(C3CCC3)n(NC(=O)C3CCCC(OC)C3)c(=O)c2cc1OC (stereo unspecified) | -1 | -1 | -2 | -9 | -10 | -10 | i | .
N#Cc1c(-c2ccccc2)cc(-c2ccccc2)[nH]c1=O | -3 | 2 | -4 | 6 | -2 | 6 | i | 10
CCOC(=O)CNC1CC(=O)N(c2cccc(Cl)c2)C1=O (stereo unspecified) | -9 | -2 | 5 | 8 | 1 | 5 | i | .
CCc1ccc(S(=O)(=O)Nc2nccs2)cc1 | -14 | -3 | 6 | 1 | -4 | 6 | i | -15
CSc1cccc(NC(=O)COc2ccccc2C)c1 | . | 0 | 2 | 16 | 7 | 2 | i | -29
Cc1ccc(S(=O)(=O)NCC(=O)N2CCN(c3ccccn3)CC2)cc1 | -9 | 5 | 0 | 2 | 1 | 5 | i | -2
Cc1csc(NC(=O)C(NS(=O)(=O)c2ccc(Br)s2)c2ccccc2)n1 (stereo unspecified) | -15 | 2 | -1 | -4 | -20 | 4 | i | .
CCC(C)c1ccccc1NS(=O)(=O)c1cnn(CC)c1 (stereo unspecified) | -10 | -1 | 3 | -13 | -12 | -8 | i | 25
Cc1cccc(NC(=O)Nc2ccc(Oc3c(F)c(F)c(F)c(F)c3F)cc2)c1 | -15 | 7 | 0 | -6 | 18 | 4 | i | .
CC1=C(C)CC(C(=O)NCc2c(F)cccc2Cl)C(C(=O)O)C1 (stereo unspecified) | 6 | -2 | 7 | 35 | -24 | 6 | i | .
COc1cc(C2NC(=S)NC(c3ccccc3)=C2C(C)=O)cc(Br)c1OCC(N)=O (stereo unspecified) | . | -4 | -1 | 69 | 5 | -14 | i | 0 | eIF4H inh retest=2;PABP FP inh retest=4
Cc1ccc(S(=O)(=O)N2C[C@H]3[C@H]4C(=O)N(Cc5ccccc5)C(=O)[C@H]4CC(=O)[C@H]3[C@@H]2c2ccccc2Cl)cc1 | 4 | 3 | -1 | . | . | . | . | 60*
COc1ccc(/C=C/C(=O)N2CCC(c3ccccc3)C2)cc1 (stereo unspecified) | . | 2 | 6 | 9 | 4 | -6 | i | -13
C#CCOCCOCCOCCNc1nc(N2CCN(C(=O)CCCCCCCCCCNC(=O)[C@@H](CCC(=O)O)n3cc(CCCCCN)nn3)CC2)nc(N2CCN(C(=O)CCCCCCCCCCNC(=O)[C@H](CO)n3cc(CCCSC)nn3)CC2)n1 | -14 | 5 | 4 | . | -11 | . | . | .
CCC(=O)n1nc(-c2ccccc2)nc1N | -31 | 5 | 7 | 0 | -13 | -4 | i | .
c1ccc(Nc2nc(N3CCCC3)nc(N3CCCC3)n2)cc1 | -17 | -8 | -2 | 2 | 10 | -13 | i | .
Cc1ccc(C(=O)CCC(=O)OCC(=O)N(CC(C)C)c2c(N)n(Cc3ccccc3)c(=O)[nH]c2=O)cc1 | -14 | 0 | 3 | . | -1 | . | i | .
CC1CCN(C(=O)COC(=O)COc2ccccc2C#N)CC1 | -13 | -2 | 5 | . | -2 | . | . | 6
CCCCC/C(=N\NC(=O)CCC(=O)NCc1ccccc1)c1ccccc1 | . | -1 | -4 | -6 | 28 | 7 | i | -2
CCOc1ccc(N2C(=O)CC(Sc3ccccc3C(=O)O)C2=O)c([N+](=O)[O-])c1 (stereo unspecified) | . | 1 | 4 | -5 | -2 | -4 | i | -7
CN(C)S(=O)(=O)n1cc(/C=C(\NC(=O)c2ccccc2)C(=O)N2CCOCC2)c2ccccc21 | -12 | -4 | 0 | -3 | 8 | -7 | i | -4
COc1ccc(C(=O)/C=C(\N)C(F)(F)F)c(O)c1 | -15 | 3 | 5 | -6 | 32 | -4 | i | -1
O=C(O)CCCNC(=O)/C(=C\c1ccc(Cl)cc1)NC(=O)c1ccc(Br)cc1 | . | 0 | 1 | -5 | -13 | 2 | i | 10
C/C(=N\Nc1ccc(Cl)c(C(=O)O)c1)c1cccc2ccccc12 | 7 | -1 | 3 | 37 | -17 | 31 | i | -11
C[N+](C)(C)CCN(Cc1ccc(Cl)cc1)c1ccccn1 | 1 | 2 | 8 | 78* | -10 | -2 | i | 18
CC(=O)c1ccc(NC(=O)CNCc2cccs2)cc1 | -10 | 0 | 2 | 14 | -9 | 2 | i | -7
CS(=O)(=O)N1N=C(c2ccco2)CC1c1ccc(Cl)cc1Cl (stereo unspecified) | . | 3 | -4 | 2 | . | -3 | i | -5
COC(=O)C1=C(C)N(Cc2ccco2)C(=O)N[C@H]1c1ccccc1 | . | . | . | 0 | -3 | 10 | i | .
Cc1ccc(CNC(=O)C(=O)NCC(c2ccco2)N2CCOCC2)cc1 (stereo unspecified) | . | 0 | -2 | 4 | -12 | 8 | i | -10
O=C(C1=C(O)/C(=C/c2ccc(O)cc2)CCC1)C(F)(F)F | -16 | -1 | -2 | 10 | 9 | -1 | i | .
CC(C)COC(=O)N1C[C@H](O)C[C@H]1C(=O)Nc1ccc(Cl)cc1 | -16 | -1 | 0 | 3 | -6 | 10 | i | -15
CCOC(=O)c1c(NC(=O)COC(=O)CCCOc2ccc(OC)cc2)sc(C(=O)N(C)C)c1C | -2 | 0 | 1 | . | . | . | . | -1
Cc1ccc(C)c(NS(=O)(=O)c2cc(C(=O)Nc3cccc(N(C)S(C)(=O)=O)c3)ccc2C)c1 | -6 | -4 | -14 | -5 | 17 | -4 | i | 5
O=C(NNC(=O)c1sccc1-n1cccc1)c1ccc(F)cc1 | -2 | 2 | 6 | -6 | -1 | 1 | i | 4
COc1cc2c(cc1NC(=S)NC(=O)c1c(OC)cccc1OC)oc1ccccc12 | . | 1 | -5 | 11 | 4 | -1 | i | -37
C[n+]1ccccc1N1CCN(c2ccccc2Cl)CC1 | . | 2 | -5 | -5 | 5 | -5 | i | 19
CN(C)S(=O)(=O)c1cccc(COC(=O)c2ccc(Cl)cc2O)c1 | . | -3 | -15 | -3 | -1 | 4 | i | 8
CCOC(=O)CSc1nc2sc(C)c(C)c2c(=O)n1N | . | 2 | 6 | -6 | -3 | -14 | i | -13
O=C(Nc1ccc(Cl)cc1)N1CCc2[nH]c3ccccc3c2C1 | . | -5 | 0 | 6 | 58 | 2 | i | .
c1ccc(CN(Cc2cccs2)C(c2cccs2)c2nnnn2C2CCCC2)cc1 (stereo unspecified) | -14 | -34 | -27 | -2 | 15 | 0 | i | .
O=C(COC(=O)CSc1ccc(F)cc1)NC1CC1 | -9 | 2 | 5 | . | . | . | . | 5
N#Cc1ccc(S(=O)(=O)N2CCCCC2c2cc(C(=O)Nc3cccc4c3CCCC4)no2)cc1 (stereo unspecified) | -6 | -8 | -12 | . | . | . | . | 60*

Overlap with the part before: 4 entries, then new ones.
SMILES | Yeast UUG start | MT1-MMP act inh | MT1-MMP act inh RFP | PABP FP inh | CSC inhib | eIF4H inh | Rce1 inhib | HIV Env fusion | others
O=C(Nc1ccc(Cl)cc1)N1CCc2[nH]c3ccccc3c2C1 | . | -5 | 0 | 6 | 58 | 2 | i | .
c1ccc(CN(Cc2cccs2)C(c2cccs2)c2nnnn2C2CCCC2)cc1 (stereo unspecified) | -14 | -34 | -27 | -2 | 15 | 0 | i | .
O=C(COC(=O)CSc1ccc(F)cc1)NC1CC1 | -9 | 2 | 5 | . | . | . | . | 5
N#Cc1ccc(S(=O)(=O)N2CCCCC2c2cc(C(=O)Nc3cccc4c3CCCC4)no2)cc1 (stereo unspecified) | -6 | -8 | -12 | . | . | . | . | 60*
Cc1ccc(Cn2ccc(=O)c(Cc3c(Cl)cccc3Cl)c2C)cc1 | -12 | -8 | -10 | 2 | 7 | -1 | i | .
CC(C)(C)OC(=O)N1CC(O)CC1C(=O)OCC(=O)c1ccccc1 (stereo unspecified) | -19 | -1 | 10 | -2 | 5 | 3 | i | -21
CCN(CC)CCN1CCN(c2cnc(C)cn2)CC1 | -14 | 0 | 5 | . | . | . | . | -32
COc1cccc(NC(=O)C2CCCN2S(=O)(=O)c2ccc3c(c2)C(C)(C)C(=O)N3C)c1 (stereo unspecified) | -2 | -1 | 1 | -5 | -3 | 1 | i | -5
Cc1cc(C)c(C#N)c(SCC(=O)Nc2nnc(-c3ccccc3)s2)n1 | 12 | 1 | 0 | 8 | 5 | 7 | i | .
Cc1c(C(=O)NCc2ccc(Cl)c(Cl)c2)sc(=O)n1Cc1ccc(C(=O)N(C)C)cc1 | 2 | -1 | -24 | . | . | . | . | 32
CC(=O)Nc1nccc(-c2cc(-c3ccccc3)no2)n1 | . | . | . | 6 | 22 | 12 | i | .
COc1ccc2ccccc2c1/C=N\NC(=O)c1ccc(C)s1 | -5 | -2 | -4 | -3 | 14 | -7 | i | 3
CCCCn1c(N)c(N(CCOC)C(=O)CSCc2ccccc2C)c(=O)[nH]c1=O | 5 | 1 | 2 | . | -1 | . | i | -5
O=C(Nc1cccc(Cl)c1)c1cnc[nH]1 | 4 | -3 | 1 | 11 | 3 | 4 | i | -11
C=CCc1cc(Cl)ccc1OCCNCCOC | . | 2 | 2 | 4 | 18 | 0 | i | -16
O=C(c1cnccn1)N(Cc1ccco1)C1(C(=O)NC2CCCC2)CCCCC1 | -6 | -2 | 0 | -6 | 2 | 6 | . | 22
O=C(C1CCC(=O)N1Cc1ccccc1Cl)N1CCN(c2ccc(F)cc2)CC1 (stereo unspecified) | 11 | 1 | 1 | -5 | -8 | -10 | i | .
O=C(O)CCN1C(=O)c2ccc(Oc3ccc4c(c3)C(=O)N(CCC(=O)O)C4=O)cc2C1=O | -14 | -3 | 2 | -2 | 1 | 1 | i | -8
CCN1C(=O)/C(=C\c2ccc(F)cc2)N=C1SCC(=O)NCc1ccco1 | -1 | 0 | 3 | -6 | -9 | -1 | i | 13
CCCn1c(=O)c(C(=O)Nc2ccccc2C(=O)OC)c(O)c2ccccc21 | -9 | 2 | -4 | -2 | 42 | 0 | i | .
Cc1cccc(NC(=O)COc2ccccc2C)n1 | -17 | 3 | 3 | 7 | -7 | 7 | i | -66
COc1ccc(CCNc2oc(COc3ccc(Br)cc3)nc2C#N)cc1OC | 0 | 0 | -9 | -2 | 12 | 1 | i | 34
Cc1ccc(N2CC(C(=O)Nc3ccc4c(c3)OCCO4)CC2=O)cc1 (stereo unspecified) | -21 | 1 | 1 | 2 | -3 | -1 | i | .
COc1ccc(CC(=O)N2CC3(C)CC2CC(C)(C)C3)cc1OC (stereo unspecified) | -2 | 3 | 4 | -10 | -6 | 8 | i | .
O=C(NC1CCCCC1)C(c1ccncc1)N(Cc1ccc(F)cc1)C(=O)c1ccccn1 (stereo unspecified) | 2 | -1 | 1 | 6 | -6 | 12 | i | ?
Cc1nc2c(C(=O)N3CCOCC3)cnn2c(C)c1Cc1cccc(Cl)c1 | . | . | . | -8 | 0 | -4 | i | .
